# PINK1 modulator: A Quantitative High throughput Screen to Identify Chemical Modulators of PINK1 Expression; PINK1 immunofluorescence, high-content cytometry, 24 h; Potency, µM (titrated, usually from 76.6 µM), without a hit: top-dose activation (PINK1 increase), hits mostly activators; hit rate 0.2% among 410,000; active = well fitted activation curve with a large enough effect; inconclusive = small, poorly fitted or top-dose-only effect; inactive = flat fitted curve, though single readings scatter; cell line not stated here;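 note: % of control where 0% means no effect; nearly all actives have a fitted effect of over 65% in size; a mitochondrial uncoupler was the plate control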
#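 Readout is PINK1 immunofluorescence, quantified alongside mitochondrial, cell and nuclear markers by laser-scanning microplate cytometry. Cells from a stable line were exposed to compound titrations (5 concentrations) for 24 hours, with CCCP controls.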
# * hit, by the source's call. Potency is the fitted concentration of half-maximal effect.
SMILES,PINK1 modulator
O=C(CN1CCCN(Cc2cccc(Cl)c2)S1(=O)=O)Nc1ccc2c(c1)OCCO2,2.2%
NC(=O)C1CCN(c2nc(-c3ccccc3-c3ccccc3)cs2)CC1,-0.6%
CC(C)c1ccc(OCc2cc(=O)n3c4c(sc3n2)CCCC4)cc1,-0.2%
CCC(CC)C(=O)Nc1nnc2n1CCS2,-2.6%
O=S(=O)(c1ccc2c(c1)OCCO2)N1C[C@@H]2C[C@H]1CN2S(=O)(=O)c1c(F)cccc1F,0.2%
Cc1cc(C)cc(NC(=O)CCS(=O)(=O)c2ccc3nc(C)sc3c2)c1,0.6%
CCCCCCc1cc2cc(-c3cn4c(n3)sc3cc(OC)ccc34)c(=O)oc2cc1O,1.0%
CC(=O)Nc1ccc(Nc2nc3ccc(Cl)cc3n3cnnc23)cc1,-0.1%
COc1ccc(OC)c(CCNC(=O)c2cc3cccc4c3n2CC(C)S4)c1 (stereo unspecified),0.8%
Cc1ccc(-c2nn(C)c(=O)c3ccccc23)cc1S(=O)(=O)NCCCN(C)C,-1.3%
Cc1ccc(N2CCN(C(=O)c3cc4cc5ccc(C)cc5nc4s3)CC2C)cc1 (stereo unspecified),1.7%
CC(C)NS(=O)(=O)c1ccc(OCC(=O)N2CCN(c3cccc(Cl)c3)CC2)cc1,0.0%
Cc1ccc(C)c(CN2C(=O)c3ccccc3S(=O)c3ccc(C(=O)N(C)Cc4ccccc4)cc32)c1 (stereo unspecified),-0.9%
COc1ccc(-c2ccc(NS(=O)(=O)c3ccc(NC(C)=O)cc3)cc2)nn1,1.2%
Cc1ccc(S(=O)(=O)c2nnn3c2nc(N2CCN(c4cccc(C)c4C)CC2)c2ccccc23)cc1C,2.3%
Cc1ccc(C)c(N2CCN(c3nc4c(S(=O)(=O)c5ccccc5)nnn4c4ccc(Cl)cc34)CC2)c1,-1.6%
CC(=O)c1ccc(NC(=O)C(Cc2ccccc2)NS(=O)(=O)c2ccc3c(c2)CCC(=O)N3)cc1 (stereo unspecified),0.5%
COc1ccccc1C(=O)Nc1onc2c1CCCC2,-0.9%
Cc1sc2c(c1C)c(=O)n(Cc1ccccc1)c(=O)n2CC(=O)N(C)c1ccccc1,1.9%
CC(=O)Nc1ccc(S(=O)(=O)NCCc2cn3ccsc3n2)cc1,1.9%
COc1cccc(Cn2c(CNS(=O)(=O)c3ccc4c(c3)CCCC4)nc3cccnc32)c1,1.9%
COc1cc(NC(=O)CCCc2nnc3n(CC(C)C)c(=O)c4sccc4n23)cc(OC)c1,-0.2%
COc1cc(CN2CCc3nc(N4CCN(c5ccccc5F)CC4)ncc3C2)ccc1OC(C)C,0.5%
COc1ccc(C)cc1NC(=O)c1ccc2c(c1)CCN2S(=O)(=O)c1ccc(Cl)cc1,-0.4%
CCOC(=O)c1c(Oc2ccc(C(=O)OC)cc2)nnc(-c2ccccc2)c1-c1ccccc1,0.6%
Cc1ccc(S(=O)(=O)c2cn(CC(=O)Nc3ccc(C)c(Cl)c3)c3ccc(C)cc3c2=O)cc1,-0.5%
CCN(C(=O)C1CCC(CNS(=O)(=O)c2cccc3nsnc23)CC1)c1ccccc1 (stereo unspecified),1.3%
COc1cccc(-c2ccc(-c3noc(-c4ccccc4Br)n3)c(OC)n2)c1,0.6%
CCCN1CCN(CCCNC(=O)Cn2nc(C)n3c(cc4c(OC)cccc43)c2=O)CC1,0.9%
CCOc1ccc(NS(=O)(=O)c2cc3c(cc2Cl)NC(=O)CO3)cc1,2.0%
COc1cccc(CN2C(=O)C3(SCC(=O)N3c3cc(C)cc(C)c3)c3ccccc32)c1 (stereo unspecified),-0.7%
CSc1ccc(CNC(=O)C2CCN(c3nnc(-n4cccc4CNc4ccc(C)cc4)s3)CC2)cc1,0.2%
C1=Cc2ccccc2/C1=C\c1cccc(/C=C2\C=Cc3ccccc32)c1,0.1%
Cc1ccc(-c2cc(N)n(Cc3cccc(Cl)c3)n2)cc1,5.8%
Cc1cccc(CCNC(=O)C2CCC(CNS(=O)(=O)c3ccccc3)CC2)c1 (stereo unspecified),1.3%
CC1CCc2nn(CC(=O)Nc3cccc(C(F)(F)F)c3)c(=O)cc2C1 (stereo unspecified),-0.5%
COCCCNC(=O)CSc1nc2c(sc3ccccc32)c(=O)n1CCCC(=O)NCCOC,2.6%
COc1ccc(C(=O)N2CCCCC2CCN2CCOCC2)cc1 (stereo unspecified),-0.6%
Cc1ccccc1CNC(=O)c1ccc(NC(=O)c2nsc3ccccc23)cc1,-0.2%
Cc1ccc(NC(=O)c2c(C)oc3ncn(CC(C)C)c(=O)c23)nc1,-0.9%
Cc1cc(=O)n2nc(N(C)CC(=O)NCc3ccccc3C)sc2n1,1.4%
COc1cccc2cc(-c3nc(-c4ccc(C)cc4)c(C)s3)c(=O)oc12,1.2%
Fc1ccccc1-n1ncc2c1ncn1nc(-c3ccccc3Cl)nc21,-0.4%
Cc1ccc(CNc2ncnc3c2nc2n3CCCC2)cc1,1.4%
Cc1cc(C)cc(NC(=O)CCc2c(C)nc3c4cccnc4nn3c2C)c1,1.0%
COc1cc(CN(C(=O)COc2ccc(C)c(C)c2)c2ccccn2)cc(OC)c1OC,0.8%
O=C(CCS(=O)(=O)c1cc2c(cc1Cl)NC(=O)CO2)NCc1ccccc1Cl,-0.7%
COc1ccc(C)cc1NC(=O)N1CCCn2nc(C)cc21,0.7%
Cc1ccccc1Cn1c(CN2CCN(c3cc(Cl)ccc3C)CC2)nc2c1c(=O)[nH]c(=O)n2C,1.0%
Cc1cc(-c2nc3ncccc3o2)ccc1NC(=O)c1ccccc1Br,6.4%
Cc1ccc(CN(Cc2cccn2-c2nnc(N3CCCC3=O)s2)C(=O)Nc2ccccc2Cl)cc1,-0.3%
O=S(=O)(c1cccc2ccccc12)N1CCN(c2ccc(Cl)c(Cl)c2)CC1,-0.7%
CCn1cc2c(n1)-c1c(oc(C(=O)Nc3cccc(C)c3C)c1C)CC2,1.8%
CCOc1ccc(-n2nc3cc(C)c(NC(=O)c4cc(OCC)c(OCC)c(OCC)c4)cc3n2)cc1,2.6%
CCN(C(=O)Cn1nc(Cc2ccncc2)c2ccccc2c1=O)c1cccc(Cl)c1,-1.6%
Cc1oc(-c2ccc(Cl)cc2)nc1CS(=O)CC(=O)N1CCN(c2cccc(C(F)(F)F)c2)CC1 (stereo unspecified),-0.2%
CCc1ccccc1NC(=O)CN1C(=O)c2ccccc2Sc2ncccc21,-0.1%
Cc1ccc(Cl)cc1NC(=O)Nc1cccc(OCc2cc(=O)n3ccccc3n2)c1,27%
Cc1cc(C)nc(-n2nc(C)c3c2N(C)C(=O)CC3c2ccc(Cl)cc2)n1 (stereo unspecified),0.0%
Cc1cccc(NC(=O)c2cnc3sc(N4CCCC4)nn3c2=O)c1C,1.9%

# More records:
SMILES,PINK1 modulator
Cc1cccc(Cn2cc(S(=O)(=O)c3cccc(Cl)c3)c(=O)c3cc(F)c(N4CCOCC4)cc32)c1,15%
CC(C)Cn1c(=O)c2ccccc2n2c(CCC(=O)Nc3ccc(F)c(F)c3)nnc12,2.9%
COc1ccc(-c2cn3c(n2)sc2cc(C(=O)NCCCN4CCCCCC4)ccc23)cc1,0.5%
CC(NC(=O)c1cc(F)ccc1F)c1nnc2n1CCN(Cc1cccs1)CC2 (stereo unspecified),1.0%
c1ccc(CN2CCN(c3ncnc4c3cnn4-c3ccccc3)CC2)cc1,1.6%
CCC(=O)Nc1ccc2nc3c(=O)n(C)c(=O)n(C)c3nc2c1,0.6%
COc1ccc(-n2cc(C(=O)NCCc3ccc(C)cc3)c3ccccc3c2=O)cc1,-1.3%
COc1ccccc1-c1noc(-c2ccc(NCc3ccccc3)c([N+](=O)[O-])c2)n1,0.4%
CCOC(=O)c1ccc(NC(=O)Cn2nnc(-c3ccc(C(F)(F)F)cc3)n2)cc1,4.9%
COc1ccc(Cl)cc1NC(=O)c1ccc2nc(Cc3ccccc3)oc2c1,-0.3%
CC1CCN(CCNC(=O)c2ccc(Cn3c(SCc4ccccc4)nc4cccnc43)cc2)CC1,0.2%
COc1ccc(C(=O)N2CC(=O)Nc3ccc(C)cc3C2c2ccccc2)c(OC)c1 (stereo unspecified),-2.9%
Cc1ccc(-n2c(SCC(=O)Nc3cccc(Cl)c3)nc3n[nH]c(C)c3c2=N)cc1,4.3%
COc1cc(NC(=O)CSc2cc(=O)n(C)c3ccccc23)cc(OC)c1OC,1.2%
COc1ccc(NC(=O)CC2Oc3ccc(C)cc3NC2=O)cc1Cl (stereo unspecified),3.4%
CCCc1nnc(SCc2cc(=O)c3c(C)cc(C)cc3[nH]2)n1C,-0.3%
CCOC(=O)C1CCC(CN(Cc2ccccc2)S(=O)(=O)c2ccc(Cl)cc2)CC1 (stereo unspecified),0.6%
COc1ccc(NC(=O)CC2C(=O)N(c3cccc(OC)c3)C(=O)N2CCC2=CCCCC2)cc1 (stereo unspecified),-0.4%
CCn1cc2nc(SCC(=O)Nc3cc(OC)cc(OC)c3)n(Cc3ccc(Cl)cc3)c(=O)c2n1,2.4%
CSc1nn(Cc2ccccc2C)c(NC(C)=O)c1S(=O)(=O)c1ccc(C)cc1,-0.8%
Cc1ccc(/C=C/c2onc(C)c2S(=O)(=O)N2CCC(C(=O)N3CC(C)Oc4ccccc43)CC2)cc1 (stereo unspecified),1.4%
CCn1cc(C(=O)N2CCN(c3cc(C)ccc3C)CC2)c(=O)c2cc(S(=O)(=O)N3CCCCC3)ccc21,3.8%
COc1cc(CN2CCC3(CCC(CNC(=O)c4ccco4)O3)CC2)ccc1O (stereo unspecified),-0.2%
Clc1ccc(Nc2c(-c3cccs3)nc3ccc(Cl)cn23)cc1,1.2%
COc1ccc(-c2nc3sc(CCNC(=O)C(=O)Nc4cccc(NC(C)=O)c4)c(C)n3n2)cc1,0.9%
CCOC(=O)CNC(=O)CC(c1cc(OC)c(OC)c(OC)c1)N1Cc2ccccc2C1=O (stereo unspecified),-5.0%
O=C1NC(O)(c2ccccc2)Oc2ccccc21 (stereo unspecified),0.3%
CCOC(=O)c1c(C)c(C(=O)NCc2ccc(Cl)cc2)c(C)n1CC,16%
Cc1ccc(C2CCN(C(=O)c3cnn(-c4ccc(C)cc4)c3C3CCN(C(=O)OC(C)(C)C)CC3)C2)cc1 (stereo unspecified),0.7%
Cc1cccc(C(=O)N2CCc3cc(CNC(=O)Cc4ccc(F)cc4)ccc32)c1,2.1%
Cc1ccc(NC(=O)N(Cc2c[nH]c3ccccc23)C2CCCCCC2)cc1C,3.0%
CC(C)CCNC(=O)Nc1ccc2c(c1)N(C)C(=O)c1ccccc1S2,18%
O=C(Nc1ccccc1C(=O)OCc1cc(=O)n2c3c(sc2n1)CCCC3)c1ccc(F)cc1,-1.2%
O=C(c1cccs1)N1CCCc2cc(NS(=O)(=O)c3ccc(Cl)cc3)ccc21,0.4%
CCN(C(=O)Cn1nc(Cc2ccncc2)c2ccccc2c1=O)c1cccc(C(F)(F)F)c1,1.3%
CN(C)c1ccc(NC(=O)CSc2nc3ccsc3c(=O)n2CCCCCC(=O)O)cc1,2.5%
CCOC(=O)c1ccc(N2C(=O)c3n[nH]c(-c4cccs4)c3C2c2ccc(OC)cc2OC)cc1 (stereo unspecified),2.6%
Cc1cccc(N2CCN(c3ncnc4onc(-c5ccc(F)cc5)c34)CC2C)c1 (stereo unspecified),5.2%
Cc1ccc2onc(CNC(=O)NCc3cccc(Cl)c3)c2c1,-1.7%
COc1cc(=O)n2c(c1C(=O)N(C)Cc1nonc1C)CCN(CC1CC=CCC1)CC2 (stereo unspecified),-0.6%
COc1ccc(Br)cc1CNC(=O)CSc1cc(=O)n(C)c2ccccc12,-0.7%
Cc1cc(=O)n(Cc2ccc(Cl)cc2)c2c1c(C)nn2-c1ccccc1,2.8%
Cc1ccc(NC(=O)CN2C=NS(=O)(=O)c3ccccc32)c(C)c1,3.1%
CCN1CCN(C(c2ccc(C)cc2)c2sc3nc(-c4ccco4)nn3c2O)CC1 (stereo unspecified),2.8%
CCOC(=O)c1c(C)oc2nc(C)nc(NCc3ccc(F)cc3)c12,2.1%
Cc1ccc2nc(SCC(=O)NCC3Cc4cc(-c5ncccc5C)ccc4O3)[nH]c2c1 (stereo unspecified),0.6%
Cc1c(Cl)cccc1-n1c(SCC(=O)NCc2ccccc2)nc2n[nH]c(C)c2c1=N,2.1%
Cc1ccc(Oc2c(C(F)(F)F)oc3c(CN4CCCCC4)c(O)ccc3c2=O)cc1,5.7%

# Some of these compounds in order of number of heavy atoms, falling:
SMILES,PINK1 modulator
COc1cc(=O)n2c(c1C(=O)N(C)Cc1nonc1C)CCN(CC1CC=CCC1)CC2 (stereo unspecified),-0.6%
Cc1c(Cl)cccc1-n1c(SCC(=O)NCc2ccccc2)nc2n[nH]c(C)c2c1=N,2.1%
COc1ccc(Br)cc1CNC(=O)CSc1cc(=O)n(C)c2ccccc12,-0.7%
Cc1cc(=O)n(Cc2ccc(Cl)cc2)c2c1c(C)nn2-c1ccccc1,2.8%
CCOC(=O)c1c(C)oc2nc(C)nc(NCc3ccc(F)cc3)c12,2.1%
Cc1ccc(NC(=O)CN2C=NS(=O)(=O)c3ccccc32)c(C)c1,3.1%
Cc1ccc2onc(CNC(=O)NCc3cccc(Cl)c3)c2c1,-1.7%

# Rewritten as tab-separated lines: part of the list above
molecule	PINK1 modulator
COc1cc(=O)n2c(c1C(=O)N(C)Cc1nonc1C)CCN(CC1CC=CCC1)CC2 (stereo unspecified)	-0.6%
COc1ccc(Br)cc1CNC(=O)CSc1cc(=O)n(C)c2ccccc12	-0.7%

# The list goes on.
SMILES,PINK1 modulator
CCCCN1C(=O)c2[nH]nc(-c3ccccc3O)c2C1c1ccc(OCc2ccccc2)cc1 (stereo unspecified),-1.0%
Cc1ccc(CNC(=O)Cn2ccn(-c3ccc(F)cc3)c(=O)c2=O)cc1,-0.2%
CN(Cc1ccccc1)C(=O)CCS(=O)(=O)c1cc(Br)cc2c1N(C(=O)C1CC1)CC2,-1.9%
COc1ccccc1-c1noc(-c2ccc(N3CCOCC3)c([N+](=O)[O-])c2)n1,1.4%
CCc1cccc(C)c1NC(=O)CN1CCCN(Cc2ccc(C)cc2)S1(=O)=O,0.2%

# These rows are one share of the data (hit frequency here may not be typical).
